Screening results (PubChem)
Mtb hypoxia rep: PubChem AID 1159583. M. tuberculosis hypoxia-regulated fluorescent reporter, fluorescence. fluorescence inhibition, % (no concentration beside the values). actives 0.1% (n = 300,000);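 active = 35 to 45% if threefold the growth effect, above 45% if 1.5-fold the growth effect; inactive = the rest, general growth blockers included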;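 also: wells of about 50 µL received 100 nL stock; 0% = vehicle wells and 100% = reference inhibitor wells; whole bacteria with a GFP reporter of the hypoxia response; strong numbers were not always called active; many hits fall short of the cut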
Bead autofluor: counter-screen for toxin protease inhibitors: compound fluorescence. compound autofluorescence counterscreen, microsphere flow cytometry; stronger effect = higher value. fluorescence intensity (no concentration beside the values). actives 3.1% (n = 360,000). AID 624483;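 active = at least 3 SD above the mean of all compounds, about 16000 in these data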;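 also: 100 nL of 1 mM stock went into each well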
BJeLR lethal: MLPCN primary cell-based screen for lethality selective to Ras in HRASV12 cells | BJeLR (HRASV12) viability, CellTiter-Glo ATP luminescence, 48 h; reference of the scale not given here | inhibition, % (no concentration beside the values) | actives 0.17% (n = 300,000) | AID 1554, 2009;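 active = replicate mean above 50%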;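 also: 50 nL library stock added to about 25 µL; numbers are from one replicate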
RN4220 kill: growth inhibition of S. aureus RN4220, primary screen, OD600 | 16 h | inhibition, % (concentration not given with the values) | actives 0.33% (n = 330,000) | AID 1259311, 2017;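 active = z-score of -3 or lower and OD600 up to 0.18 on both plates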;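 also: plate controls were untreated cells for no effect and reference antibiotic for full effect; stock transfer was 100 nL into about 80 µL; one replicate is shown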
PrP 5UTR inh: inhibition of PrP 5' UTR reporter expression. cell-based PrP 5' UTR mRNA reporter, plate reader. inhibition, % (concentration not given with the values). actives 0.35% (n = 340,000). AID 488862, 2010;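 active = every replicate at 50% or more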;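 also: 0 = median of the neutral control wells; tested in H4 reporter cells; numbers are from one replicate; inactives centre near -14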
Sa ugtP lethal: growth inhibition of ugtP-null S. aureus, primary screen, RN4220 ugtP deletion, OD600; 16 h; some inactives read as strong as hits; growth inhibition, % (test concentration not listed); actives 0.54% (n = 330,000); AID 1259309, 2017;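 active = z-score under -3 and OD600 up to 0.15 on both plates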;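 also: plate controls were untreated wells for no effect and antibiotic for full effect; wells of about 80 µL received 100 nL stock; the first replicate is given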
Mtb hypoxia rep growth: recorded beside Mtb hypoxia rep, whose call it bears; growth inhibition, %; measured here: M. tuberculosis growth (absorbance);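 0% = vehicle and 100% = reference antibiotic; read after six days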
Active calls of the source: *; nt = not tested or not shown.

SMILES	Mtb hypoxia rep	Mtb hypoxia rep growth	Bead autofluor	BJeLR lethal	RN4220 kill	PrP 5UTR inh	Sa ugtP lethal
NC(Cc1c[nH]c2ccccc12)C(=O)NCc1ccco1 (centres undefined)	7	11	4359	5	-2.0	-65	6
CC(CCc1ccccc1)NC(=O)CN1CCN(c2ccc(O)cc2)CC1 (centres undefined)	-13	5	3223	19	5.9	-14	6
O=C(Cc1c(F)cccc1Cl)Nc1ccc(S(=O)(=O)N2CCOCC2)cc1	5	5	4748	2	17	2	9
Cc1cc(NC(=O)NC2(C(F)(F)F)Oc3ccc(Cl)cc3O2)no1 (centres undefined)	4	3	16576*	-4	-0.6	-8	-3
N/C(=N\OC(=O)c1cccc2ccccc12)c1cccnc1	6	-1	2053	-5	0.7	-36	-5
CCOC(=O)N1CCN(C(=O)c2ccc([N+](=O)[O-])cc2Cl)CC1	12	10	3491	-7	6.2	-15	11
Nc1c2nc(-c3ccccc3)[nH]c(=O)c2nc(=O)n1-c1ccccc1	5	-5	4481	-2	-2.9	-10	2
COc1ccccc1C(=O)NNC(=S)Nc1ccccc1	10	8	4037	3	1.1	-24	7
COc1cccc(-c2cccc(NC(=O)C3CCN(CC4CCOC4)CC3)c2)c1 (centres undefined)	3	4	6274	-2	-0.9	-5	3
Cc1ccc(SCC(=O)c2c(C)nc3ccccn23)cc1	16	1	3478	7	3.6	-14	2
CC/C(=N\n1nnnc1Nc1ccccc1)c1ccccc1	nt	nt	9682	-7	nt	-20	nt
Cn1nnc(-c2ccc(OCc3ccccc3F)cc2)n1	6	8	23800*	10	2.5	-57	-2
Cc1ccc(CNC(=O)CON=Cc2ccc(C(C)(C)C)cc2)cc1	5	7	nt	nt	3.6	nt	37
CC(C)(C)C(=O)OCc1cn(-c2ccc(Cl)cc2)nn1	11	9	19456*	4	6.3	-34	-8
CCC(C)(C)NC(=O)c1cccc(NC(=O)C(C)C)c1	6	5	4292	0	3.2	-10	-1
CCn1nnnc1SCC(=O)Nc1nc(-c2cccs2)cs1	nt	nt	3604	0	-0.2	-33	5
O=C(CN1CCN(c2ccccc2)CC1)c1c[nH]c2ccccc12	11	3	3608	-9	1.3	-10	14
COc1ccccc1/C=N/OC(=O)c1ccc(C)cc1	nt	nt	4938	8	nt	-11	nt
Cc1cc(-c2ccc(C)c(S(=O)(=O)NCC3CCN(Cc4cccc(F)c4)CC3)c2)on1	4	6	6321	3	3.2	1	3
COc1ccc(C(=O)NCC(=O)NN=C/C(C)=C/c2ccco2)cc1OC	4	5	nt	nt	4.1	nt	-1
CCOc1ccc(NC(=O)CSc2nnc(Cn3cnc([N+](=O)[O-])n3)n2C)cc1	3	2	9452	5	-3.7	-11	11
COC(CN(C)S(=O)(=O)c1cc2c3c(c1)CCC(=O)N3CCC2)OC	2	4	5562	6	2.3	4	7
CC1C=CCC2C(=O)N(c3cc(Cl)ccc3O)C(=O)C12 (centres undefined)	6	18	4198	7	6.2	-13	-1
O=P(O)(Oc1ccccc1)OC(c1ccccc1)C(F)(F)F (centres undefined)	0	-11	3276	-7	3.8	-15	15
CCc1n[nH]c(CCN)n1	8	-2	4374	12	0.8	-5	4
CC1Oc2ccccc2N(CC(=O)N2CCCCCC2)C1=O (centres undefined)	5	0	5138	-8	5.3	-8	8
CC(C)n1nc(C(=O)OCC(=O)N(C)C2CCS(=O)(=O)C2)c2ccccc2c1=O (centres undefined)	18	12	4171	0	7.2	-5	11
COc1ccccc1/C=C/C(=O)OCC(=O)NCc1ccco1	6	7	10477	-7	2.3	-21	-3
c1ccc(Oc2ccccn2)cc1	1	4	3909	nt	0.1	-17	-2
Cc1ccc(C(=O)ON=Cc2c(C(F)(F)F)nn(C)c2Sc2ccc(Cl)cc2)cc1	16	2	nt	nt	-7.0	nt	0
COc1ccc(C(=O)OCC(=O)NC2CCCC2)c(OC)c1OC	-4	5	3632	-18	3.5	-42	12
COc1ccc(C(=O)NCc2ccc3c(c2)CCO3)cc1	2	9	13252	2	-0.7	-15	1
CCOC(=O)N1CCN(C(=O)CN2C(=O)COc3ccc(C)cc32)CC1	6	6	4295	6	2.5	-52	7
CCC(C)=NNc1nc(-c2cc3cccc(OC)c3oc2=O)cs1	-17	-8	nt	nt	2.9	nt	-12
Cc1ccc(/C=N/NC(=O)c2cc(-c3ccncc3)nc3ccccc23)o1	nt	nt	4270	59*	nt	0	nt
O=C(NCc1ccccc1)C1CCN(S(=O)(=O)c2ccc(N3CCCC3=O)cc2)CC1	-10	-3	3950	3	0.7	-10	6
CCCC(=NCC(=O)O)C1=C(O)C(C(=O)OC)C(C)(C)CC1=O (centres undefined)	nt	nt	2973	0	5.6	-18	4
Cc1ccc(C(=O)Nc2cccnc2Oc2ccc(Cl)cc2)cc1	-4	15	4019	2	3.3	-12	19
CC(C)NC(C)Cc1ccc(I)cc1 (centres undefined)	5	4	6442	nt	2.2	-23	2
CN=C(C)C1=C(O)C(C(=O)OC)C(C)(C)CC1=O (centres undefined)	8	12	3268	-7	4.4	-7	7
O=C(NCc1cccs1)c1cc(S(=O)(=O)N2CCCCC2)ccc1Cl	4	-1	5389	7	5.7	5	17
COc1ccccc1CCNC1CCCCCC1	12	11	2899	15	0.0	-5	7
Cc1cc(=O)c(C(=O)O)cn1Nc1ccc(F)cc1	11	16	4432	5	1.2	-10	-4
O=C1c2ccccc2CCc2ccccc21	7	-4	3877	nt	7.3	-13	5
Cc1onc(-c2c(Cl)cccc2Cl)c1C(=O)Nn1cnnc1	nt	nt	2799	-7	-0.7	7	2
CO/N=C/C(C#N)=C/c1cc(C(=O)c2ccc(F)cc2)cn1C	nt	nt	4552	0	nt	-10	nt
COc1ccc(CN2CCN(C(=O)c3ccco3)CC2)cc1	nt	nt	4325	0	-2.6	4	2
COc1ccc(C(C)(C)C)cc1NC(=O)CCCn1c(=O)oc2ccccc21	-3	6	2115	-3	7.6	-8	11
N#Cc1cccc(Cn2nnc(-c3ccccc3)n2)c1	nt	nt	3899	0	2.6	-19	1
COc1ccc(C(=O)Nc2nnc(CCc3ccccc3)s2)c(OC)c1	-2	1	4249	-14	11	-18	-17
CC(=NNC(=O)c1ccoc1C)c1ccc(N2CCOCC2)cc1	10	13	nt	nt	3.1	nt	8
Cc1ccc(C)c(NC(=S)N2CCCCC2CO)c1 (centres undefined)	5	10	4404	-11	2.0	-4	5
CCN(CC)C(=O)c1nc[nH]c1C(=O)N1CCN(c2ccccc2)CC1	-6	0	4321	nt	5.4	-18	7
COCCCn1c(=O)c2sccc2n(Cc2cc(C(=O)OC)ccc2OC)c1=O	18	3	3977	2	5.1	-26	4
O=C(Cc1ccccc1)NNC1CC(=O)N(c2ccc(Cl)cc2)C1=O (centres undefined)	10	11	3899	nt	14	-9	6
COC(=O)[C@]1(Cc2ccccc2)N[C@H](CN(C)C(=O)c2ccc(C(C)(C)C)cc2)[C@@H]2C(=O)N(Cc3ccccc3)C(=O)[C@@H]21	-18	-1	3904	nt	3.4	-16	-14
COCCNC(=O)C1CC(c2ccccc2C(F)(F)F)=NO1 (centres undefined)	21	4	4376	7	6.9	-14	3
Cc1nc(SCc2cccnc2)[nH]c(=O)c1C	1	-8	5781	-16	-0.2	-23	3
CCNc1nc(SCC(=O)Nc2ccc(Cl)c(Cl)c2)nc(N2CCOCC2)n1	1	2	4097	4	-5.6	-16	-20
O=C(Nc1ccc(Cl)c(Cl)c1)Nc1cc(C(=O)N2CCOCC2)ccc1N1CCCCC1	5	3	8364	-11	-9.6	-21	12

Further compounds
SMILES	Mtb hypoxia rep	Mtb hypoxia rep growth	Bead autofluor	BJeLR lethal	RN4220 kill	PrP 5UTR inh	Sa ugtP lethal
CS(=O)(=O)NCc1nnc(SCc2c(F)cccc2Cl)o1	4	4	4047	-1	5.5	-5	4
CC(Oc1ccccc1[N+](=O)[O-])C(=O)NN=Cc1ccoc1 (centres undefined)	0	1	nt	nt	0.8	nt	-6
COC(=O)c1[nH]c2cccc(OC)c2c1NC(=O)CN(C)CC1OCCO1	8	2	16319*	6	0.5	-19	6
COc1ccc(NS(=O)(=O)c2cc(S(C)(=O)=O)ccc2C)cc1	5	3	2065	-1	7.3	-4	9
O=C1N(CN2CCN(c3cccc(Cl)c3)CC2)c2ccccc2C12OCCCO2	-9	5	21061*	-2	0.7	-15	-3
CCn1nc(C)c(NC(=O)CC23CC4CC(CC(C4)C2)C3)c1C	11	6	2636	-4	7.3	-12	11
CCSc1ccc2nnc(-c3cccc(F)c3)n2n1	6	2	11038	-23	11	-10	-9
Cc1ccc2nc(NCCCN3CCOCC3)c(C=NCCCN3CCOCC3)c(=O)n2c1	0	-3	2433	3	-19	12	-9
Cc1ccc(C)c(S(=O)(=O)N2CCCCC2CCNC(=O)C(=O)NCc2ccco2)c1 (centres undefined)	7	1	6071	-1	8.7	-15	9
CCCCC1CC1C(NC(=O)c1ccccc1)c1ccccc1C(F)(F)F (centres undefined)	10	-3	nt	nt	10.0	nt	19
OCc1cn(-c2ccccc2)nc1-c1ccc(-c2nn(-c3ccccc3)cc2CO)cc1	nt	nt	3735	-8	-3.0	-14	3
O=C(c1[nH]ncc1-c1cccc(Br)c1)C1CO1 (centres undefined)	20	16	6718	-5	7.2	-74	10
COc1ccc(C2CC(c3c(-c4ccccc4)c4cc(Cl)ccc4[nH]c3=O)=NN2S(C)(=O)=O)cc1 (centres undefined)	nt	nt	3192	7	nt	-11	nt
O=C(CSC1=NS(=O)(=O)c2ccccc2N1)N1CCCCC1	8	7	5250	7	1.1	-22	6
CC#CCCCC(=O)Nc1ccc(C(=O)O)cc1	0	3	16088	-5	-6.6	-5	-3

Arranged by molar mass (high to low): some entries from above
SMILES	Mtb hypoxia rep	Mtb hypoxia rep growth	Bead autofluor	BJeLR lethal	RN4220 kill	PrP 5UTR inh	Sa ugtP lethal
COc1cccc(-c2cccc(NC(=O)C3CCN(CC4CCOC4)CC3)c2)c1 (centres undefined)	3	4	6274	-2	-0.9	-5	3
COc1ccc(C(=O)Nc2nnc(CCc3ccccc3)s2)c(OC)c1	-2	1	4249	-14	11	-18	-17
O=C(CN1CCN(c2ccccc2)CC1)c1c[nH]c2ccccc12	11	3	3608	-9	1.3	-10	14
COc1ccc(C(=O)NCc2ccc3c(c2)CCO3)cc1	2	9	13252	2	-0.7	-15	1
Cc1cc(=O)c(C(=O)O)cn1Nc1ccc(F)cc1	11	16	4432	5	1.2	-10	-4

Retrieved by structure from above (2):
SMILES	Mtb hypoxia rep	Mtb hypoxia rep growth	Bead autofluor	BJeLR lethal	RN4220 kill	PrP 5UTR inh	Sa ugtP lethal
O=C(Cc1c(F)cccc1Cl)Nc1ccc(S(=O)(=O)N2CCOCC2)cc1	5	5	4748	2	17	2	9
CCC(C)(C)NC(=O)c1cccc(NC(=O)C(C)C)c1	6	5	4292	0	3.2	-10	-1

Next structures follow.
SMILES	Mtb hypoxia rep	Mtb hypoxia rep growth	Bead autofluor	BJeLR lethal	RN4220 kill	PrP 5UTR inh	Sa ugtP lethal
Cc1ccc(NC(=O)C2CCCN2C(=O)OCc2ccccc2)c(C)c1 (centres undefined)	7	1	4738	6	1.7	-22	3
O=C(Oc1cccc(/C=N/Nc2nc(Nc3ccccc3)nc(N3CCOCC3)n2)c1)c1ccco1	nt	nt	2034	-10	nt	2	nt
CCc1nnc(NC(=O)CSc2nnc(CNC(=O)c3ccccc3F)n2C)s1	0	1	3709	-12	3.8	-36	8
O=C(NNC(=O)c1ccccc1OCc1ccccc1)c1ccccc1O	2	2	5785	30	21	24	8
Cc1onc(-c2c(Cl)cccc2Cl)c1C(=O)NCc1cccs1	10	7	2629	-6	2.0	-19	2
O=C(c1cccc(C(F)(F)F)c1)N1CCCCCC1	23	17	11586	5	3.4	-5	2
c1ccc(OCCSc2nnnn2-c2ccccc2)cc1	2	7	3295	4	6.8	-79	2
Cc1cc(C)nc(NC(=S)Nc2cccc(F)c2)c1	-4	4	3599	-10	1.3	-41	13
O=C(CC1CCCC1)Nc1nc2ccccc2[nH]1	-3	-4	8657	-22	1.9	-89	8
CC(C)(C)N(CC#CCC(O)(c1ccccc1)c1ccccc1)CCO	0	-3	5805	-4	1.4	-18	6
CC(C)Cn1cnc2c(N)nc3ccccc3c21	-15	-9	5960	nt	8.5	-17	2
CCOC(=O)c1c(C)sc2c1N(C(C)=O)c1cc(Cl)ccc1S2	nt	nt	2428	0	11	-6	-15
